Bm FixLJ act: B. multivorans fixK reporter activation | z-score (test concentration not listed) | B. multivorans fixK-promoter GFP reporter, 18 h; stronger effect = higher value | 29,000 tested, 0.3% active | AID 1918990;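 active = replicate mean overnight rise in green fluorescent reporter signal, 3 or more SD over negative controls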;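 note: score is relative to vehicle wells of the plate; 300 nL library stock went into each well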
Numbers without * were called inactive; & = joins results of further samples. Not all compounds are listed, so the mix of outcomes need not match the whole.

nr | structure | Bm FixLJ act
1 | COc1ccc2nc(NC(=O)c3nc(S(=O)(=O)Cc4ccccc4F)ncc3Cl)sc2c1 | -1.3
2 | Cc1ccc(CNC(=O)CN(c2ccc(C)cc2)S(=O)(=O)c2c(C)nn(C)c2C)cc1 | 0.38
3 | Cc1nc(CC(=O)NC2CCN(Cc3c(C)noc3C)CC2O)cs1 (stereo not given) | -0.02
4 | CC(C(=O)O)c1ccc(N2Cc3ccccc3C2=O)cc1 (stereo not given) | -0.45
5 | Cc1nn(CC(=O)NC2CCC2)c(=O)n1CCc1ccccc1 | -0.46
6 | Cc1ccc(S(=O)(=O)N2CCC(c3nnc(-c4cccc(C)c4)o3)CC2)cc1 | -2.4
7 | COc1ccc(C(=O)N(Cc2ccco2)Cc2ccc(C)o2)cc1 | -0.91
8 | Cc1cc(C)c(S(=O)(=O)NCCc2cc3c(C)ccc(C)c3[nH]c2=O)c(C)c1 | -0.63
9 | COc1ccc(C2CN(C(=O)c3cc(C)nn3C)C3C4CCN(CC4)C23)cc1 (stereo not given) | -1.1
10 | O=C(Cn1ncc2c3ccccc3n(Cc3ccc(Cl)cc3)c2c1=O)NCc1ccccn1 | 2.4

A second format for part of the listing above.
(5) Cc1nn(CC(=O)NC2CCC2)c(=O)n1CCc1ccccc1
  Bm FixLJ act = -0.46

(10) O=C(Cn1ncc2c3ccccc3n(Cc3ccc(Cl)cc3)c2c1=O)NCc1ccccn1
  Bm FixLJ act = 2.4

Carrying on.
nr | structure | Bm FixLJ act
11 | Cc1ccc(-c2nc3c4ccccc4[nH]c(=O)n3n2)cc1 | 0.22
12 | CCCCN1CC2(CCCN(C(=O)CCn3nnnc3C)C2)CCC1=O (stereo not given) | -0.32
13 | Cc1ccc(S(=O)(=O)N(CC(=O)Nc2ccc(C(C)C)cc2)Cc2ccccc2)cc1 | -0.19
14 | COc1ccc(Cl)cc1NC(=O)CSc1nc2ccccc2nc1N1CCCCC1 | -1.7
15 | COc1ccccc1N1CCN(C(=O)Cn2ncc3c2-c2cc(C)ccc2OC3)CC1 | -0.45
16 | Cc1ccc(OCCSc2nc3ccccc3n2CCC(=O)O)cc1C | 0.36
17 | COc1c(Cl)cc(Cl)cc1CNCCSc1nnnn1C | -0.5
18 | Cc1ccc2nc(-c3cccc(NC(=O)c4ccc(Br)o4)c3)oc2c1 | -0.41
19 | Cc1ccc(CNC(=O)CCCn2nc(C)n3c(cc4sccc43)c2=O)cc1 | -0.11
20 | CCN(CC)CCNC(=O)Nc1ccc2c(c1)N(Cc1ccccc1)C(=O)c1ccccc1S2 | -0.91
21 | Cc1ccsc1CN(C(=O)COc1ccc(Br)cc1)C1CCS(=O)(=O)C1 (stereo not given) | -2.5
22 | COc1ccc(OCCCN2CCCCC2c2nc(C)no2)cc1 (stereo not given) | 1.1
23 | COc1ccc(S(=O)(=O)N(Cc2nc(-c3ccc(C)cc3)no2)C2CCCCC2)cc1 | -0.35
24 | Cn1c(=O)cc(SCC(=O)NCCc2ccc(Cl)cc2)c2cc(Cl)ccc21 | -1.8
25 | COCCCN1CC2(CCC1=O)CCN(C(=O)Nc1cccc(C)c1)CC2 | 0.39
26 | CCOc1ccc(NC(=O)Cn2c(C)cc3ccccc3c2=O)cc1 | 0.1
27 | COc1cc2c(cc1OC)C1(CCN(C(=O)C3CCCN3C)CC1)OCC2 (stereo not given) | 0.84
28 | CC(C)CCNC(=O)c1cc(-c2ccc(Br)s2)nc2ccccc12 | -4.5
29 | CCCOc1ccc(-c2nn(-c3ccccc3)cc2C2NC(=O)NC(C)=C2C(=O)OC(C)C)cc1 (stereo not given) | -1.7
30 | COc1ccc(CNC(=O)c2cc3cc4cc(OC)ccc4nc3o2)cc1 | -0.15
31 | Cc1cccc(Cn2nnc3c(=O)[nH]c(C4CCN(C(=O)c5ccc(F)cc5)CC4)nc32)c1 | -2
32 | COc1ccc(CCC(=O)NCC2CCN(c3ccc(Cl)cn3)CC2)cc1 | -1.8
33 | COc1ccc(NC(=O)Cn2c(=O)n(Cc3ccco3)c(=O)c3sc4ccccc4c32)c(OC)c1 | -0.09
34 | CCc1nn(CCCC(=O)NCc2ccc(OC)c(OC)c2)c(=O)c2cc3occc3n12 | -0.92
35 | COc1cccc(-c2[nH]ncc2C(=O)N(C)Cc2c(C)noc2C)c1 | 0.11
36 | COc1cccc(NC(=O)C2CCCN2S(=O)(=O)c2ccc3c(c2)n(C)c(=O)c(=O)n3C)c1 (stereo not given) | -0.35
37 | CCOC(=O)c1ccc(NC(=O)c2sc3nc4c(cc3c2N)N2CCC4CC2)cc1 | -2.9
38 | COc1ccc(N2C(=O)C(CC(=O)Nc3ccc(F)cc3)N(CCC3=CCCCC3)C2=O)cc1 (stereo not given) | -0.62
39 | Cc1ccc(C)c(N2CCN(c3c(CN4CCCC4)c(=O)oc4ccccc34)CC2)c1 | 0.33
40 | Cc1cccc(C(C(=O)O)N2CCN(C3CCCCC3)C(=O)C2)c1F (stereo not given) | -0.6
41 | CCOc1ccc(Oc2nc(NCC(C)C)nc(N3CCOCC3)n2)nn1 | -1.3
42 | COc1ccc(NC(=O)c2c(NC(=O)c3cccc(C)c3)sc3c2CCC3)cc1 | -0.18
43 | COc1ccc(OCC(=O)NCC(c2ccc(OC)cc2)N2CCCCC2)cc1 (stereo not given) | -1.9
44 | CC(C1CCN(Cc2cc(C#N)ccn2)CC1)N1CCOCC1 (stereo not given) | 0.16
45 | Cc1cccnc1N1CCN(C(=O)CCN2CCCCCC2=O)CC1 | -0.96
46 | Cc1ccccc1-c1cn[nH]c1C1CCN(C(=O)C2(C(N)=O)CC2)CC1 | 0.16
47 | CC(NCc1ccc2c(c1)n(C)c(=O)n2C)c1ccccc1 (stereo not given) | -1
48 | COc1ccc([C@@H]2Sc3ccccc3N(CCN(C)C)C(=O)[C@@H]2OC(C)=O)cc1 | -1.4
49 | CN[C@@H]1C(O)[C@@H](O[C@@H]2[C@@H](O)[C@H](O[C@H]3OC(CN)=CC[C@H]3N)[C@@H](N)C[C@H]2N)OC[C@]1(C)O (stereo not given in full) | 0.75
50 | Cc1ccc(C)c(Nc2cc(C(=O)NC3CCCCC3)c3ccccc3n2)c1 | -1.3
51 | Cc1nc(C)c(C(=O)N2CCCN(C(=O)CC3CCc4ccccc43)CC2)s1 (stereo not given) | -1.1
52 | CCOc1ccccc1CN(CCc1ccc2c(c1)OCO2)Cc1ccc(CC)cc1 | 2.2
53 | CCCNC(=O)c1cnn2c(C(F)F)cc(-c3ccccc3)nc12 | -1.1
54 | COc1ccc(N2CCN(C(=O)CCc3c(C)nc4cc(-c5ccc(OC)cc5OC)nn4c3C)CC2)cc1 | -1.3
55 | COc1ccc(Br)cc1CNC(=O)c1ccc2c(c1)N(Cc1ccc(C)cc1)CCS2 | -0.22
56 | COCCN1CC(CNC(=O)Nc2snnc2-c2ccccc2)CC1=O (stereo not given) | -1.1
57 | Cc1ccccc1OCCn1cc(C(=O)c2ccco2)c2ccccc21 | -0.65
58 | COc1ccc(-c2ccc3c(N)c(C(=O)c4ccc(OC)c(OC)c4)sc3n2)cc1 | -1.6
59 | Cc1cc(C(=O)NCC2CCN(CC(=O)Nc3cn(C)nc3C)CC2)nc(C)n1 | -0.36
60 | COc1cc(F)c(CN2CCOC3(CCN(C(=O)CNC(N)=O)C3)C2)c(F)c1 (stereo not given) | -0.54

(more compounds)
nr | structure | Bm FixLJ act
61 | CCC(C)CN1CCOC2(CCN(C(=O)CCn3cnnn3)CC2)CC1=O (stereo not given) | -0.17
62 | CCc1ccc(S(=O)(=O)Nc2ccc3oc(C)c(C(=O)OCCOC)c3c2)cc1 | -1.1
63 | CCCCSCCCNC(=O)c1cn(C)c2ccc(S(=O)(=O)N3CCCCCC3)cc2c1=O | 0.23
64 | COc1cc(C)c(-c2ccc(C(=O)NCC(O)CO)cc2)cc1C (stereo not given) | 0.5
65 | Cc1c(CN2CCC(N3CCCC(C(=O)N4CCOCC4)C3)CC2)cnn1C (stereo not given) | 0.64
66 | Cc1cccc(C(=O)Nc2sc3c(c2C(=O)NC(C)C)CCCC3)c1 | -2.5
67 | CCc1c(C)c2cc3c(c(C)c2oc1=O)OCN(CCc1ccc(OC)c(OC)c1)C3 | -1.3
68 | Cc1nc2c(c(N(C)C)n1)CCN(C(=O)c1ccc(O)c(C)c1)C2 | -3
69 | Cc1nc(C(C)C)sc1C(=O)NC1(C(=O)O)CCCc2ccccc21 (stereo not given) | -1.3
70 | Cc1ccc2c(c1)OC(C)(C)CC2NC(=O)CCc1ccncc1 (stereo not given) | 1.4
71 | Cc1ccc2nc(NCc3ccc(F)cc3)c3nncn3c2c1 | -0.53
72 | CCc1nn2c(-c3ccccc3OC)ccnc2c1-c1ccccc1 | 0.13
73 | N#Cc1ccccc1CN1CCCC(c2nccn2Cc2cscn2)C1 (stereo not given) | 1.2
74 | CC(=O)c1c(C)nn(C(C)CC(=O)N(C)Cc2c(C)noc2C)c1C (stereo not given) | 0.79
75 | CCCCc1nc2ccccc2c(=O)n1-c1cccc(OC)c1 | 0.23
76 | CSc1ncc(CNC(=O)c2cccc(-c3nc(C)n(C)n3)c2)n1C | 0.12
77 | CC1=C(/C=C/C(C)=C/C=C/C(C)=C/C(=O)O)C(C)(C)CCC1 | -2.1&-0.29
78 | COC(CNC(=O)c1cnn2ccn(C)c12)c1cccs1 (stereo not given) | -0.91
79 | CCc1nc2ccccc2n1C(CC)C(=O)NCc1cccnc1 (stereo not given) | -0.21
80 | CCc1ccccc1NC(=O)Cn1c(C(=O)OC)cc2oc(C)cc21 | -1.6

Brought forward from above: 7 entries; new compounds follow.
nr | structure | Bm FixLJ act
74 | CC(=O)c1c(C)nn(C(C)CC(=O)N(C)Cc2c(C)noc2C)c1C (stereo not given) | 0.79
75 | CCCCc1nc2ccccc2c(=O)n1-c1cccc(OC)c1 | 0.23
76 | CSc1ncc(CNC(=O)c2cccc(-c3nc(C)n(C)n3)c2)n1C | 0.12
77 | CC1=C(/C=C/C(C)=C/C=C/C(C)=C/C(=O)O)C(C)(C)CCC1 | -2.1&-0.29
78 | COC(CNC(=O)c1cnn2ccn(C)c12)c1cccs1 (stereo not given) | -0.91
79 | CCc1nc2ccccc2n1C(CC)C(=O)NCc1cccnc1 (stereo not given) | -0.21
80 | CCc1ccccc1NC(=O)Cn1c(C(=O)OC)cc2oc(C)cc21 | -1.6
81 | Cc1cccc(-c2cn[nH]c2C2CCN(C(=O)c3cncnc3C)CC2)c1 | -0.07
82 | Cc1nn(-c2ccc(Cl)cc2)c2nc(-c3cccnc3)cc(C(F)(F)F)c12 | 0.81
83 | CCCCn1nc(Cn2cncn2)nc1CC1CCS(=O)(=O)C1 (stereo not given) | -0.33
84 | CCc1ccc(Oc2c(C(F)(F)F)oc3c(CN4CCCC(C)C4)c(O)ccc3c2=O)cc1 (stereo not given) | -0.35
85 | Cc1ccc(NC(=O)c2cc(-c3ccc4c(c3)OCO4)on2)cc1 | -0.6
86 | O=C(c1ccc[nH]c1=O)N1CC2CCC1CN(C1Cc3ccccc3C1)C2 (stereo not given) | -1.1
87 | O=C(O)CCNC(=O)N(CCO)CC12CC3CC(CC(C3)C1)C2 | -2.4
88 | CC(=O)N1CCc2cc(Br)cc(S(=O)(=O)N3CCN(c4cccc(C)c4)C(C)C3)c21 (stereo not given) | -0.82
89 | CCOc1ccccc1N1CC(c2nc3ccccc3n2CCOc2ccc(C(C)(C)C)cc2)CC1=O (stereo not given) | 0.46
90 | Cc1ccc(C(=O)Nc2ccccc2)cc1S(=O)(=O)Nc1ccc(Br)cc1 | -0.13
91 | CC(C)(C)C(=O)NCCc1nc2ccccc2n1CCCCOc1ccccc1 | -2.2
92 | CCOc1ccc(NC(=O)CC2C(=O)N(c3ccc(OC)cc3)C(=O)N2C2CCCCC2)cc1 (stereo not given) | 2
93 | COc1cc2c(cc1OC)C(c1cc(OC)c(O)c(OC)c1)CC(=O)N2 (stereo not given) | -1.2
94 | Cc1noc(C)c1CN1CCc2c(C(=O)NCc3cnn(C)c3)csc2C1 | 0.02
95 | Cc1cc(C)c2c(=O)cc(C(=O)Nc3nc4ccc(F)cc4s3)oc2c1 | -0.6
96 | COc1ccc(C2CC(=O)c3cnc4c(-c5ccccc5)c(C)nn4c3C2)cc1OC (stereo not given) | -3.3
97 | CCCCC(=O)Nc1cc(C)c(O)c(-c2nc3ncccc3o2)c1 | 1.4
98 | CCOC(=O)c1c(NC(=O)C2c3ccccc3Oc3ccccc32)sc(C)c1C | -3.4
99 | CCc1cccc(C)c1NC(=O)CCS(=O)(=O)c1cc(Br)cc2c1N(C(=O)C1CC1)CC2 | -1.1
100 | CCS(=O)(=O)CCNC(=O)Nc1ccc(CCc2ccccn2)cc1 | 0.63
101 | Cc1ccc(C)c(N2CCN(C(=O)C3CCCN(S(=O)(=O)c4cccc5nonc45)C3)CC2)c1 (stereo not given) | -0.56
102 | O=c1cc(CN2CCC(C(O)c3cccs3)CC2)[nH]c(=O)[nH]1 (stereo not given) | -1.3
103 | O=C(Cn1c(=O)c2sccc2n(CC(=O)Nc2ccc(Cl)cc2Cl)c1=O)NCCc1ccccc1 | -0.67
104 | Cc1ccccc1Cn1c(-c2cccs2)nc2ccccc21 | -2.5
105 | COc1ccc(-c2nc3cc(C)ccn3c2NC(=O)c2ccc(C)c(C)c2)cc1 | 2.8
106 | CCN1CCN(c2c(S(=O)(=O)c3ccc(Cl)cc3)cnc3ccccc23)CC1 | -0.84
107 | Cc1ccc(C(=O)COC(=O)c2cc(-c3ccccc3)nc3ccccc23)cc1C | 0.91
108 | COc1ccc(-c2nc3c(c(SCC(=O)Nc4ccccc4OC)n2)Cc2cccc(C)c2O3)cc1 | -0.77
109 | CCC(=O)N1CCc2ccc(S(=O)(=O)NCCOc3ccccc3)cc2C1 | 0.77
110 | COc1ccc(CCN2C(=O)N(c3ccc(F)cc3)C(=O)C2CC(=O)Nc2ccc(F)c(F)c2)cc1 (stereo not given) | -1.5
111 | COc1ccc(OCc2nc(-c3ccc(OC)c(OC)c3)no2)cc1 | -0.8
112 | CCc1nnc(NC(=O)c2cc(=O)c3cc(C)ccc3o2)s1 | -0.78
113 | OC1CC(c2cc(NC3CCCC3OCc3ccccc3)ncn2)C1 (stereo not given) | -0.2
114 | COc1ccc(C(=O)NC2(C(F)(F)F)C(=O)Nc3c2c(=O)[nH]c(=O)n3CCc2ccc(OC)c(OC)c2)cc1 (stereo not given) | -0.94
115 | CCc1ccc(NC(=O)CCc2nnc3n(C)c(=O)c4sccc4n23)cc1 | -1.6
